# UUG fidelity – modulators of start codon recognition fidelity in yeast; S. cerevisiae UUG-firefly luciferase reporter, luminescence/redox ratio; activity score, % at 18.7 µM; actives 0.13% (n = 350,000); AID 602363;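 active means replicate mean at a twofold rise or more, about +100% in these data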;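 further: firefly luciferase made from a UUG start codon reports start codon fidelity; reporter light over untreated wells divided by growth signal over untreated wells; some hits fall short of that in this replicate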
# HIV Env fusion – inhibitors of HIV Env-mediated cell fusion; HeLa-JRFL Env/CEM21 cell fusion, luciferase; actives 1.1% (n = 360,000); AID 651610; inhibition, % at 12.3 µM;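 active means mean replicate inhibition score of at least 50 and every replicate individually at or above 50; inconclusive means only one of the two criteria met; inactive means mean below 50 and not all replicates reaching 50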;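 further: 0% = plate neutral controls and 100% = maraviroc near 300 nM; one replicate is shown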
# * marks the source's active call; other numbers are inactive results; ? = inconclusive; & = joins results of further samples; [ ] = remark or other dose. An excerpt; the hit share may differ from the screen's.
# Sample of the layout:
HIV Env fusion | UUG fidelity | SMILES
-17[16.7 µM] | 15 | Cc1noc(C)c1NC(=O)Nc1ccc2c(c1)C(=O)N([C@@H](C)CO)C[C@@H](C)[C@H](CN(C)Cc1ccc(C(=O)O)cc1)OCCCC[C@H](C)O2
-95[16.7 µM] | 10 | CCC(=O)N(C)C[C@H]1Oc2cc(-c3ccncc3)ccc2S(=O)(=O)N([C@@H](C)CO)C[C@H]1C

# The list itself, from the first entry:
HIV Env fusion | UUG fidelity | SMILES
-17[16.7 µM] | 15 | Cc1noc(C)c1NC(=O)Nc1ccc2c(c1)C(=O)N([C@@H](C)CO)C[C@@H](C)[C@H](CN(C)Cc1ccc(C(=O)O)cc1)OCCCC[C@H](C)O2
-95[16.7 µM] | 10 | CCC(=O)N(C)C[C@H]1Oc2cc(-c3ccncc3)ccc2S(=O)(=O)N([C@@H](C)CO)C[C@H]1C
5[16.7 µM] | 13 | CCCC#Cc1ccc2c(c1)O[C@H](CN(C)C(=O)CC)[C@@H](C)CN([C@H](C)CO)S2(=O)=O
31[16.7 µM] | -2 | CC(=O)N(C)C[C@@H]1Oc2cc(C#Cc3ccncc3)ccc2S(=O)(=O)N([C@H](C)CO)C[C@@H]1C
12[16.7 µM] | -2 | C[C@@H]1CN([C@@H](C)CO)C(=O)c2cc(-c3cccc(C(=O)N(C)C)c3)cnc2O[C@@H]1CN(C)S(=O)(=O)c1ccccc1
1[16.7 µM] | 0 | C[C@H]1CN([C@@H](C)CO)C(=O)c2cc(NC(=O)CCN3CCOCC3)ccc2O[C@H]1CN(C)C(=O)Nc1cccc2ccccc12
-32[16.7 µM] | 5 | CCCC#Cc1ccc2c(c1)O[C@@H](CN(C)C(=O)c1ccccc1)[C@H](C)CN([C@@H](C)CO)S2(=O)=O
-23[16.7 µM] | -13 | COc1ccc(S(=O)(=O)N(C)C[C@H]2OCCCC[C@H](C)Oc3ccc(NC(=O)Nc4ccc(C(F)(F)F)cc4)cc3C(=O)N([C@H](C)CO)C[C@H]2C)cc1
-8[16.7 µM] | -15 | O=C(C[C@@H]1C=C[C@H](NC(=O)c2ccncc2)[C@H](CO)O1)Nc1ccc(-c2ccccc2)cc1
-1[16.7 µM] | -8 | O=C(C[C@H]1CC[C@H](NC(=O)c2ccc(F)cc2)[C@@H](CO)O1)NCCc1ccccc1
24[16.7 µM] | 12 | C[C@H](CO)N1C[C@H](C)[C@H](CN(C)CC2CCCCC2)OCCCC[C@H](C)Oc2ccc(NC(=O)Nc3ccc(C(F)(F)F)cc3)cc2C1=O
-8[16.7 µM] | -4 | O=C(Nc1cc(F)ccc1F)N[C@H]1CC[C@@H](CCNC(=O)c2cnccn2)O[C@H]1CO
14[16.7 µM] | 8 | C[C@@H]1CCCCO[C@@H](CN(C)S(=O)(=O)c2cccs2)[C@@H](C)CN([C@H](C)CO)C(=O)c2cc(NC(=O)c3ccncc3)ccc2O1
9[16.7 µM] | 2 | O=C(Nc1ccc2c(c1)OCO2)N[C@H]1C=C[C@@H](CC(=O)N2CCN(c3ccccc3)CC2)O[C@H]1CO
17[16.7 µM] | -5 | C[C@@H]1CN([C@@H](C)CO)S(=O)(=O)c2ccc(C3=CCCCC3)cc2O[C@H]1CN(C)C(=O)Cc1ccccc1
-3[16.7 µM] | 0 | C[C@@H]1CN([C@H](C)CO)C(=O)c2cc(NS(=O)(=O)c3ccccc3)ccc2O[C@@H](C)CCCCO[C@@H]1CN(C)C(=O)c1ccncc1
12[16.7 µM] | 2 | C[C@H](CO)N1C[C@H](C)[C@H](CN(C)C(=O)C2CCC2)Oc2ncc(/C=C/c3ccccc3)cc2C1=O
61*[16.7 µM] | 11 | COc1ccc(NC(=O)Nc2ccc3c(c2)C(=O)N([C@H](C)CO)C[C@H](C)[C@H](CN(C)C(=O)c2ccccc2)OCCCC[C@H](C)O3)cc1
13[16.7 µM] | -8 | Cc1noc(C)c1NC(=O)N(C)C[C@H]1Oc2ccc(NC(=O)c3ccncc3)cc2CC(=O)N([C@@H](C)CO)C[C@H]1C
-6[16.7 µM] | -9 | CCNC(=O)C[C@@H]1C=C[C@H](NC(=O)C2CCOCC2)[C@H](CO)O1
7[16.7 µM] | 17 | CC(=O)Oc1ccccc1C(=O)OCO/N=[N+](\[O-])N1CCCC1
30 | -8&-8 | COCC#Cc1cnc2c(c1)C(=O)N([C@@H](C)CO)C[C@H](C)[C@H](CN(C)C(=O)c1ccc3c(c1)OCO3)O2
7[16.7 µM] | 3 | CCCNC(=O)C[C@H]1CC[C@H]2[C@H](COc3ccc(NC(=O)c4ccc(OC)cc4)cc3C(=O)N2C)O1
5[16.7 µM] | -4 | COc1ccc(S(=O)(=O)N(C)C[C@@H]2Oc3ccc(NC(=O)Nc4ccc(F)cc4)cc3CC(=O)N([C@@H](C)CO)C[C@@H]2C)cc1
11[16.7 µM] | -9 | O=C(C[C@H]1CC[C@@H](NC(=O)Nc2cc(F)ccc2F)[C@H](CO)O1)NCCCN1CCOCC1
8[16.7 µM] | -1 | C[C@@H]1CN([C@H](C)CO)C(=O)Cc2cc(NC(=O)CCC(F)(F)F)ccc2O[C@@H]1CN(C)Cc1ccccc1
-8[16.7 µM] | -12 | Cc1ccc(S(=O)(=O)N[C@H]2C=C[C@H](CC(=O)NC3CCCCC3)O[C@H]2CO)cc1
-1[16.7 µM] | 13 | C[C@H]1CN([C@@H](C)CO)C(=O)c2cc(C#CC3CC3)cnc2O[C@@H]1CN(C)C(=O)CC1CC1
83*[16.7 µM] | -7 | O=C(C[C@H]1C[C@@H]2c3cc(NC(=O)C4CCOCC4)ccc3O[C@@H]2[C@H](CO)O1)NCc1ccccc1
32[16.7 µM] | -5 | C[C@@H]1CCCCO[C@H](CN(C)C(=O)CCC(F)(F)F)[C@H](C)CN([C@@H](C)CO)C(=O)c2cc(NS(=O)(=O)c3cn(C)cn3)ccc2O1
2[16.7 µM] | -5 | C[C@@H]1CN([C@H](C)CO)C(=O)Cc2cc(NS(=O)(=O)c3ccccc3)ccc2O[C@@H]1CN(C)S(=O)(=O)c1ccc(Cl)cc1
9[16.7 µM] | 1 | O=C(Cc1ccccn1)N[C@H]1C=C[C@H](CC(=O)N2CCCCC2)O[C@H]1CO
-18[16.7 µM] | 11 | Cc1ccc(S(=O)(=O)N(C)C[C@H]2Oc3c(NC(=O)C4CCOCC4)cccc3C(=O)N([C@H](C)CO)C[C@H]2C)cc1
-14[16.7 µM] | 25 | C[C@H](CO)N1C[C@H](C)[C@H](CN(C)S(=O)(=O)c2ccc(F)cc2)Oc2ncc(C#CCN(C)C)cc2C1=O
-5[16.7 µM] | -6 | C[C@@H]1CN([C@@H](C)CO)C(=O)c2cc(C#Cc3cccnc3)cnc2O[C@@H]1CN(C)C(=O)CC1CC1
-5[16.7 µM] | -3 | COCCNC(=O)C[C@@H]1C[C@H]2c3cc(NC(=O)COC)ccc3O[C@H]2[C@H](CO)O1
8[16.7 µM] | 60 | O=C(C[C@@H]1CC[C@H](NC(=O)Nc2ccccc2F)[C@@H](CO)O1)NCc1ccccc1
84*[16.7 µM] | -3 | C[C@H](CO)N1C[C@H](C)[C@H](CN(C)S(=O)(=O)c2cccs2)Oc2ccc(NC(=O)NC3CCCCC3)cc2CC1=O
-12[16.7 µM] | -2 | C[C@@H]1CCCCO[C@H](CN(C)C(=O)NC2CCCCC2)[C@H](C)CN([C@H](C)CO)C(=O)c2cc(NS(C)(=O)=O)ccc2O1
-4[16.7 µM] | -12 | C[C@H]1CN([C@@H](C)CO)C(=O)c2cccc(NS(=O)(=O)c3ccccc3)c2O[C@@H]1CN(C)C(=O)Nc1ccc(C(F)(F)F)cc1
7[16.7 µM] | -3 | Cc1noc(C)c1NC(=O)N[C@H]1CC[C@H](CC(=O)NCCCN(C)C)O[C@@H]1CO
16[16.7 µM] | -1 | O=C(C[C@@H]1CC[C@H]2[C@@H](COC[C@H](O)CN2Cc2ccc(Cl)cc2)O1)NCCc1ccccc1
15[16.7 µM] | -5 | C[C@H]1CN([C@@H](C)CO)S(=O)(=O)c2ccc(-c3ccc(C(=O)N(C)C)cc3)cc2O[C@@H]1CN(C)C
-4[16.7 µM] | 4 | C[C@@H]1CN([C@@H](C)CO)C(=O)Cc2cc(NC(=O)Cn3cnnn3)ccc2O[C@@H]1CN(C)CC1CCCCC1
1[16.7 µM] | -3 | C[C@@H]1CN([C@H](C)CO)S(=O)(=O)c2ccc(C3=CCCCC3)cc2O[C@@H]1CN(C)C(=O)CC1CC1
-2[16.7 µM] | 15 | C[C@H](CO)N1C[C@H](C)[C@@H](CN(C)C(=O)Cc2ccccc2)OCCCC[C@H](C)Oc2ccc(N(C)C)cc2C1=O
-12[16.7 µM] | -15 | COc1ccc(S(=O)(=O)N(C)C[C@@H]2Oc3ccc(NC(=O)C4CC4)cc3CC(=O)N([C@@H](C)CO)C[C@@H]2C)cc1
13[16.7 µM] | -6 | C[C@@H]1CN([C@H](C)CO)C(=O)c2cc(NC(=O)NC3CCCCC3)ccc2O[C@@H](C)CCCCO[C@@H]1CN(C)Cc1ccncc1
24[16.7 µM] | -13 | COc1cccc(NC(=O)N[C@H]2CC[C@H](CC(=O)Nc3ccc(-c4ccccc4)cc3)O[C@@H]2CO)c1
0[16.7 µM] | -2 | COc1ccc(S(=O)(=O)N[C@H]2CC[C@H](CC(=O)NCCc3ccncc3)O[C@@H]2CO)cc1
10[16.7 µM] | -9 | C[C@@H]1CN([C@H](C)CO)C(=O)c2cccc(NS(C)(=O)=O)c2O[C@H]1CN(C)CC1CC1
-18[16.7 µM] | -5 | C[C@@H]1CN([C@@H](C)CO)S(=O)(=O)c2ccc(-c3cccc(C(=O)N(C)C)c3)cc2O[C@@H]1CN(C)C(=O)Cc1ccccn1
14[16.7 µM] | -16 | C[C@@H]1CCCCO[C@H](CN(C)Cc2ccc(C(F)(F)F)cc2)[C@@H](C)CN([C@H](C)CO)C(=O)c2cc(NC(=O)NC3CCCCC3)ccc2O1
7[16.7 µM] | -16 | O=C(C[C@H]1C[C@@H]2c3cc(NC(=O)Nc4ccccc4F)ccc3O[C@@H]2[C@@H](CO)O1)NCc1ccncc1
58*[16.7 µM] | -3 | Cc1ccc(S(=O)(=O)N(C)C[C@@H]2Oc3ncc(Br)cc3C(=O)N([C@@H](C)CO)C[C@@H]2C)cc1
28[16.7 µM] | 23 | CC(C)CC#Cc1cnc2c(c1)C(=O)N([C@H](C)CO)C[C@@H](C)[C@H](CN(C)CC1CCOCC1)O2

# Five records drawn at random from those above, as already listed:
HIV Env fusion | UUG fidelity | SMILES
7[16.7 µM] | -16 | O=C(C[C@H]1C[C@@H]2c3cc(NC(=O)Nc4ccccc4F)ccc3O[C@@H]2[C@@H](CO)O1)NCc1ccncc1
58*[16.7 µM] | -3 | Cc1ccc(S(=O)(=O)N(C)C[C@@H]2Oc3ncc(Br)cc3C(=O)N([C@@H](C)CO)C[C@@H]2C)cc1
0[16.7 µM] | -2 | COc1ccc(S(=O)(=O)N[C@H]2CC[C@H](CC(=O)NCCc3ccncc3)O[C@@H]2CO)cc1
24[16.7 µM] | -13 | COc1cccc(NC(=O)N[C@H]2CC[C@H](CC(=O)Nc3ccc(-c4ccccc4)cc3)O[C@@H]2CO)c1
28[16.7 µM] | 23 | CC(C)CC#Cc1cnc2c(c1)C(=O)N([C@H](C)CO)C[C@@H](C)[C@H](CN(C)CC1CCOCC1)O2

# (continued)
HIV Env fusion | UUG fidelity | SMILES
26[16.7 µM] | -14 | C[C@H]1CN([C@@H](C)CO)C(=O)c2cc(NC(=O)CCCN(C)C)ccc2O[C@@H]1CN(C)Cc1ccc(Cl)c(Cl)c1
-11[16.7 µM] | 2 | COc1ccc(S(=O)(=O)N2C[C@@H](O)COC[C@@H]3O[C@H](CC(=O)N[C@H]4CCN(Cc5ccccc5)C4)CC[C@H]32)cc1
13[16.7 µM] | 3 | CCCNC(=O)N(C)C[C@H]1Oc2ncc(C#CC(C)C)cc2C(=O)N([C@H](C)CO)C[C@@H]1C
9[16.7 µM] | 21 | C[C@@H]1CCCCO[C@H](CN(C)C(=O)NC2CCCCC2)[C@H](C)CN([C@H](C)CO)C(=O)c2cc(NS(=O)(=O)c3ccccc3)ccc2O1
-7[16.7 µM] | 11 | C[C@@H]1CCCCO[C@H](CN(C)CC2CC2)[C@@H](C)CN([C@H](C)CO)C(=O)c2cc(NC(=O)Nc3cccc4ccccc34)ccc2O1
16[16.7 µM] | -12 | CCC(=O)Nc1ccc2c(c1)OC[C@H](C)N(C(C)=O)C[C@@H](C)[C@@H](OC)CN(C)C2=O
? | 3 | COc1ccc(COC[C@@]23Oc4ccccc4[C@@H](NC(=S)N2C)[C@H]3CO[Si](C)(C)C(C)(C)C)cc1
8[16.7 µM] | 5 | CCCNC(=O)N(C)C[C@@H]1Oc2ncc(C#CC(C)C)cc2C(=O)N([C@@H](C)CO)C[C@H]1C

# A different layout for part of the listing above.
smiles	HIV Env fusion	UUG fidelity
CCC(=O)Nc1ccc2c(c1)OC[C@H](C)N(C(C)=O)C[C@@H](C)[C@@H](OC)CN(C)C2=O	16[16.7 µM]	-12
COc1ccc(COC[C@@]23Oc4ccccc4[C@@H](NC(=S)N2C)[C@H]3CO[Si](C)(C)C(C)(C)C)cc1	?	3
CCCNC(=O)N(C)C[C@@H]1Oc2ncc(C#CC(C)C)cc2C(=O)N([C@@H](C)CO)C[C@H]1C	8[16.7 µM]	5

# More results
HIV Env fusion | UUG fidelity | SMILES
11[16.7 µM] | -13 | COc1ccc(NC(=O)Nc2ccc3c(c2)[C@H]2C[C@H](CC(=O)NCC4CC4)O[C@@H](CO)[C@H]2O3)cc1
-27[16.7 µM] | -13 | CCCC#Cc1ccc2c(c1)O[C@@H](CN(C)C(=O)NCCC)[C@H](C)CN([C@@H](C)CO)S2(=O)=O
6[16.7 µM] | 1 | CCC(=O)N1C[C@H](C)[C@@H](OC)CN(C)C(=O)c2cc(NC(=O)c3ccc(F)cc3)ccc2OC[C@H]1C
-10[16.7 µM] | 0 | C[C@H]1CCCCO[C@H](CN(C)C(=O)Nc2ccc3c(c2)OCO3)[C@@H](C)CN([C@@H](C)CO)C(=O)c2cc(N(C)C)ccc2O1
